Screening data from PubChem BioAssay.
Bead autofluor = compound fluorescence in toxin protease inhibitor counterscreen; compound autofluorescence counterscreen, microsphere flow cytometry; active compounds read high; fluorescence intensity (test concentration not listed); 3.1% of 360,000 active; AID 624483;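 active = at least 3 SD above the mean of all compounds, about 16000 in these data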;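 also: 100 nL of 1 mM stock went into each well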
Numbers without * were called inactive.

SMILES	Bead autofluor
COC(=O)c1ccc(N2C(c3cc(OC)cc(OC)c3)=Cc3ccc(OC)cc3C2CC(=O)c2ccco2)cc1 (configuration not stated)	4092
O=C(NC1CCCCC1)C1c2ccccc2OCC(=O)N1C1CC1 (configuration not stated)	5756
COCCNC(=O)C1(C)CCCN(C(=O)c2ccc(F)cc2Cl)C1 (configuration not stated)	3975
CC1(C(=O)Nc2cccc(C(F)(F)F)c2)Cc2c(-c3cccc(C(F)(F)F)c3)ccnc2O1 (configuration not stated)	4071
COc1ccccc1Cn1c(C)c(C(=O)NCc2cccc(C)c2)sc1=O	3880
CCCCN(C)C(=O)c1sc(=O)n(Cc2ccccc2C#N)c1C	5571
CC(C)N(C)c1ncnc2c1ncn2[C@H]1CN(Cc2ccco2)C[C@@H](CO)O1	3630
COc1ccc(CCN2CC(C(=O)NCc3cccc(F)c3)CCC2=O)cc1 (configuration not stated)	3431
COc1ccc(C(O)c2nc(-c3ccc4ccccc4c3)cs2)cc1 (configuration not stated)	3726
Cc1c(Cl)cccc1N=C1NC(=O)CS1	3437
Cc1cccc(CN2CCN(C3CN(CCc4ccccc4)S(=O)(=O)C3)CC2)c1 (configuration not stated)	5960
C[C@@H]1CN([C@@H](C)CO)C(=O)CCCn2nncc2CO[C@H]1CN(C)Cc1ccc(C(F)(F)F)cc1	3440
CCCCCCNC(=O)O[C@H]1C[C@@H]2C(=O)N(c3ccccc3)C(=O)[C@@H]2[C@@H]2CN(S(=O)(=O)c3ccc(C)cc3)C[C@]12O	8210
CCCCNC(=O)C1c2ccccc2OCC(=O)N1CCc1ccc(OC)c(OC)c1 (configuration not stated)	5823
CCc1nc2ccc(C(=O)NCc3cccs3)cn2c1N(CC)CCN(C)C	2878
CSCc1ccc(C(=O)OCC(=O)NC2CCCC2)o1	3014
COc1ccccc1Cc1c(-c2ccc(C#N)cc2)nc2c(Cl)cc(C(F)(F)F)cn12	10081
COc1ccc(NC(=O)C2Cc3c(-c4cccc(NC(C)=O)c4)ccnc3O2)cn1 (configuration not stated)	3827
O=C(Nc1ccccc1[N+](=O)[O-])OCC=Cc1ccccc1	4125
COc1ccc(C(O)c2nc(-c3cccc(CO)c3)cs2)cc1 (configuration not stated)	3308

Reformatted with each value named: entries from further up
Cc1c(Cl)cccc1N=C1NC(=O)CS1
  Bead autofluor: 3437

Cc1cccc(CN2CCN(C3CN(CCc4ccccc4)S(=O)(=O)C3)CC2)c1 (configuration not stated)
  Bead autofluor: 5960

The list goes on:
SMILES	Bead autofluor
CC(C)Nc1nc(NCCN2CCNC2=O)c2sccc2n1	3551
O=C1CCCCCC(=O)[C@H](O)C[C@H](c2ccccc2)O1	6075
COc1ccccc1CNC(=O)c1cc(-c2ccc(F)cc2OC)n[nH]1	3849
COc1c2c(c(OC)c3ccccc13)[C@@]1(OC2)O[C@H](CCO)C[C@H](O)[C@H]1O	3815
CC(CO)NS(=O)(=O)c1cccc(Cl)c1F (configuration not stated)	3569
COc1ccc(C(=O)O)cc1S(=O)(=O)Nc1cc(C(F)(F)F)ccc1N1CCCCC1	3699
C[C@@H]1CN([C@@H](C)CO)C(=O)CCCn2cc(nn2)CO[C@H]1CN(C)S(=O)(=O)c1ccc(C#N)cc1	3452
COc1ccc(-c2cnc3c(NC(C)=O)cc(-c4cccc(C(=O)NCCO)c4)cn23)cc1OC	3941
O=[N+]([O-])c1ccc(Sc2ccncn2)c([N+](=O)[O-])c1	3909
OC[C@H]1O[C@@H](c2nc(-c3ccccc3Br)no2)[C@H](O)[C@@H](O)[C@H]1O	3513
COC(=O)c1cccc(CN2C(=O)C(C)Sc3ccc(C#N)cc32)c1 (configuration not stated)	3722
CCCNC(=O)C1(C)CCN(C(=O)COCc2ccccc2)C1 (configuration not stated)	3818
COc1ccc(C(O)c2nc(-c3ccccc3OC)cs2)cc1 (configuration not stated)	3735
CC(=O)Nc1cccc(-c2ccnc3c2CC(C(=O)NCCN(C)C)O3)c1 (configuration not stated)	3021
O=C(COc1ccccc1)Nc1c2c(nn1-c1ccc(F)cc1)CS(=O)C2 (configuration not stated)	2954
CCCCCC(=O)N1C[C@H](O)[C@@H](n2cc(-c3ccc(F)cc3)nn2)C[C@@H]1c1ccc(C)cc1	3618
CSc1ncccc1C(=O)OC(C)C(=O)Nc1ccc2c(c1)OCCO2 (configuration not stated)	3903
CCCc1nc2ccc(Cl)cn2c1Cc1ccc(C)cc1	6627
C[N+](=O)C1C(=O)Nc2ccccc21 (configuration not stated)	6395
C[C@H]1CN([C@@H](C)CO)C(=O)CCCn2nncc2CO[C@@H]1CN(C)S(=O)(=O)c1cccc(C#N)c1	3693
CC(=O)Nc1cccc(-c2cc(N3CCN(CCO)CC3)n3nccc3n2)c1	3772
CC(=O)Nc1cc(-c2ccc(N3CCN(C)CC3)cc2)cn2c(-c3cccc(C(C)=O)c3)cnc12	3844
C(#CSCc1ccccc1)SCc1ccccc1	2997
Nc1ccn([C@@H]2O[C@H](C(=O)Nc3ccc(Oc4ccccc4)nc3)[C@@H](O)[C@H]2O)c(=O)n1	6047
CC1(C)OC2C(CO)OC(n3cnc4c(=S)nc(N)[nH]c43)C2O1 (configuration not stated)	4470
COc1ccc(CN2C[C@@H](CO)O[C@@H](n3cnc4c(N5CCN(c6ccccc6)CC5)ncnc43)C2)cc1	3505
C[C@H]1CN([C@@H](C)CO)S(=O)(=O)c2ccc(Br)cc2O[C@H]1CN(C)C(=O)Cc1ccncc1	4562
C[C@@H]1CN([C@H](C)CO)C(=O)CCCn2nncc2CO[C@@H]1CN(C)C(=O)Oc1cccc2ccccc12	3077
CCC(c1nnnn1-c1ccc2c(c1)OCCO2)N1CCC2(CC1)C(=O)NCN2c1ccccc1 (configuration not stated)	5771
O=C1c2ccccc2C(c2nnnn2Cc2ccccc2)N1C1CC1 (configuration not stated)	6992
CCCC(C)(C)C(=O)N1CCC1(C)C(=O)NS(=O)(=O)c1cccc(Cl)c1 (configuration not stated)	2697
CS(=O)(=O)Nc1cccc(NC(=O)c2ccc(-n3ccnc3)c3ccoc23)c1	3614
N#CC1C(=O)Nc2cccnc21 (configuration not stated)	3851
Cc1ccc(C(=O)OCC(=O)NC2CCCCCCC2)cc1C	3534
CCCCn1nnnc1C(c1cc2ccccc2o1)N(C)Cc1ccccc1 (configuration not stated)	5204
FC(F)(F)C(F)(F)C(F)(F)c1nc2nc(Cl)c(Cl)nc2[nH]1	3825
COCOCCn1cc(CN2CCS(=O)(=O)N(Cc3ccc(-c4cccc(CO)c4)cc3)C(C(C)C)C2=O)nn1 (configuration not stated)	2975
O=C(CNC(=O)C12CC3CC(CC(C3)C1)C2)N1CCCC(C(F)(F)F)C1 (configuration not stated)	3966
CN1CCN(C(=O)c2ccc(-c3ccc(F)c(F)c3)c3ccoc23)CC1	3056
O=C(Nc1ccccc1Cl)c1cc(C2CCCN(C(=O)c3cccc(O)c3)C2)on1 (configuration not stated)	4086
C[C@@H]1CN([C@H](C)CO)C(=O)c2cc(Br)cnc2O[C@@H]1CN(C)Cc1ccc(F)cc1	3130
O=C(Nc1ccc(F)c(Cl)c1)c1cc(C2CCCCN2C(=O)CCc2ccccc2)on1 (configuration not stated)	3544
Cc1cn([C@H]2C[C@H](O)[C@@H](CNS(=O)(=O)N3CCCC3)O2)c(=O)[nH]c1=O	3586
O=C(NCc1cccs1)C1Cc2c(-c3ccc(Cl)cc3)ccnc2O1 (configuration not stated)	3392
CCCCCc1c(-c2ccccc2)ncn1CCc1ccccc1OC	5534
CCOC(=O)C1=CCN(S(=O)(=O)c2ccc(C)cc2)C1c1cccc2ccccc12 (configuration not stated)	5669
C[C@H]1CN([C@@H](C)CO)S(=O)(=O)c2ccc(C#Cc3ccccn3)cc2O[C@H]1CN(C)Cc1ccc(F)cc1	3685
COC(=O)C[C@H]1C[C@@H]2c3cc(NC(=O)NC4CCCC4)ccc3O[C@@H]2[C@@H](CO)O1	3699
COc1ccc2oc(-c3ccccc3)cc(=O)c2c1	5457
CCOc1ccc(Cl)cc1-c1cc(C(=O)NCc2cccc(C(F)(F)F)c2)[nH]n1	3719
COCCCNc1ccn2nc(-c3cccc(Cl)c3)cc2n1	4229
CCCCCCN1C[C@@H](O)[C@H](n2cc(-c3ccc(F)cc3)nn2)C[C@@H]1c1ccccc1	3770
O=C(NC1CCCC1)C1c2ccccc2OCC(=O)N1CC(F)(F)F (configuration not stated)	6699
Cc1ccc(S(=O)(=O)NC(=O)Cn2nnc(-c3ccccc3)c2COc2ccc3ccccc3c2)cc1	2918
O=C(Nc1ccc(OCCO)cc1)c1csc([C@H]2C[C@H](O)[C@@H](CO)O2)n1	4099
CN1C[C@@H](CO)O[C@@H](n2cnc3c(N4CCOCC4)ncnc32)C1	3435
Cc1c(NC(=O)COC(=O)c2cccc(F)c2)c(=O)n(-c2ccccc2)n1C	2846
COc1ccc(C=C(C#N)C(=O)c2ccccc2)cc1	6528
CCc1nc2c(OCc3ccc(OC(F)F)cc3)cccn2c1N(C)C(=O)c1cccs1	3894
COc1cc([N+](=O)[O-])c(C)cc1NC(=O)c1ccc(OC)c(OC)c1	3578
Further structures:
SMILES	Bead autofluor
COc1ccc(S(=O)(=O)N2CCCOC2CNC(=O)C(=O)NCCO)cc1 (configuration not stated)	3999
CCc1nc2ccc(C(=O)NCCCn3ccnc3)cn2c1N(C)Cc1cccs1	4172
O=C(NCc1cccc(C(F)(F)F)c1)c1ccc2sc([C@H]3C[C@H](O)[C@@H](CO)O3)nc2c1	3920
O=C(Nc1ccc(NC(=O)c2ccccc2)c2ccccc12)c1ccccc1	3223
CCn1nccc1NC(=O)c1csc([C@@H]2O[C@H](CO)[C@H](O)[C@H](O)[C@H]2O)n1	3003
COC(=O)[C@@]1(Cc2ccc(F)cc2)[C@H]2c3cc(C(=O)N(C)C)n(CC4CC4)c3C[C@H]2CN1C(=O)c1ccccc1	4186
COCCNC(=O)C1(C)CCN(C(=O)c2ccc(OC)c(F)c2)C1 (configuration not stated)	3869
Cc1csc(=O)n1CCC(=O)OCC(=O)N(C)c1c(N)n(Cc2ccccc2)c(=O)[nH]c1=O	3728
CCCS(=O)(=O)NC(=O)C1(C)CCCN(C(=O)c2ccc(OC)cc2OC)C1 (configuration not stated)	2968
CCc1nc2c(OCCC3CCCCC3)cccn2c1N(C)C(=O)c1ccccc1F	3516
CC1CC(=O)c2cc(-c3ccccc3)oc2C1 (configuration not stated)	3563
Fc1cccc(Cc2c(C3CCCCC3)nc3c4ccccc4ccn23)c1	6898
Cn1c(=O)c2cc(NC(=O)NCc3ccc(F)cc3)ccc2n1C/C=C/c1ccccc1	3421
CN1OC[C@@H]2CN(C(=O)Cc3ccccc3)[C@H](c3ccccc3Br)C[C@@H]21	2332
CCOC(=O)C1=CCC(c2ccco2)N(S(=O)(=O)c2ccc(C)cc2)C1 (configuration not stated)	5454
Cc1ccc(S(=O)(=O)N2C[C@@H](C)[C@]3(C2)[C@H](O)[C@H](OC(=O)NC2CC2)C[C@H]2C(=O)N(c4ccccc4)C(=O)[C@H]23)cc1	3601
O=C(NCc1ccc(Cl)cc1Cl)Nc1nc([C@@H]2O[C@H](CO)[C@@H](O)[C@H](O)[C@H]2O)cs1	5613
COc1ccc(C2CC=C(C(C)=O)CN2S(=O)(=O)c2ccccc2)cc1 (configuration not stated)	4223
Cc1ccc(OC(=O)N(C)C[C@@H]2OCc3cnnn3CCCC(=O)N([C@@H](C)CO)C[C@H]2C)cc1	3928
COc1ccc(-c2c(C(=O)c3ccccc3)[nH]c(N)c2C(=O)NCc2ccccc2)cc1OC	4445

Given with bars between the fields: part of the list above.
SMILES | Bead autofluor
O=C(Nc1ccc(OCCO)cc1)c1csc([C@H]2C[C@H](O)[C@@H](CO)O2)n1 | 4099
CN1C[C@@H](CO)O[C@@H](n2cnc3c(N4CCOCC4)ncnc32)C1 | 3435
Cc1c(NC(=O)COC(=O)c2cccc(F)c2)c(=O)n(-c2ccccc2)n1C | 2846
COc1ccc(C=C(C#N)C(=O)c2ccccc2)cc1 | 6528
CCc1nc2c(OCc3ccc(OC(F)F)cc3)cccn2c1N(C)C(=O)c1cccs1 | 3894

Continuation.
SMILES	Bead autofluor
CCOc1ccc(NC(=O)CN(C)C(=O)CCCNC(=O)c2ccc(Cl)cc2)cc1OCC	3577
OCC1OC(n2ccc3c2ncn2ncnc32)C(O)C1O (configuration not stated)	2861
C[C@H](CO)N1C[C@H](C)[C@H](CN(C)S(=O)(=O)c2ccc(Oc3ccccc3)nc2)OCc2cnnn2CCCC1=O	3350
COc1cc(-c2cc3nc(NC4CCCCC4)ccn3n2)cc(OC)c1OC	2922
Cc1cc(Br)cn2c(CC(C)(C)C)c(-c3cccc(Cl)c3)nc12	4206
Cc1ccc(N2C(=O)N(CC(=O)N3CCc4ccccc43)C(=O)C2C)cc1 (configuration not stated)	3789
Cc1cc2nc(C(C)(C)C)c(Cc3cccc(Cl)c3)n2c(C)c1Br	4272
CN1C[C@@H](CO)O[C@@H](n2cnc3c(N4CCN(CCO)CC4)ncnc32)C1	3468
CN1CCN(C(=O)c2cc3c(c(-c4cccc(-c5cccnc5)c4)n2)[C@H](CCO)N(C(=O)CC2CC2)C3)CC1	6396
CCCCn1c(O)c2n(c1=O)Cc1ccccc1N=C2c1ccc(OC)cc1	5638
Cc1cccc(C)c1OCC(=O)Nc1cccc(S(=O)(=O)N2CCCCCC2)c1	3595
COCCN1C[C@@H](CO)O[C@@H](n2cnc3c(NCC(C)C)ncnc32)C1	3663
C[C@H]1CN([C@@H](C)CO)C(=O)CCCn2cc(nn2)CO[C@@H]1CN(C)C(=O)Cc1ccccc1	3535
CC(=O)O[C@@H]1[C@H](Oc2c(O)c(C)c3c4c2[C@H](C)CC[C@H]4[C@H](C)C[C@@H]3C=C(C)C)O[C@@H](C)[C@@H](O)[C@H]1O	3995
CCOC(=O)C1=CCN(S(=O)(=O)c2ccccc2Cl)C1c1ccc(Cl)c(Cl)c1 (configuration not stated)	5693

Not all compounds are listed (hit frequency here may not be typical).
